Bioassay records from PubChem BioAssay.
LANA-nucl inh – inhibitors of KSHV LANA binding to nucleosomes; 0.3% of 51,000 active; z-score (no concentration beside the values); FITC-LANA1-23 / chicken nucleosome fluorescence polarization; hits give low values;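 active = both repeat wells score below -2 in polarization z-score versus plate sample wells, excluding overly bright wells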;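 note: 100 nL library stock added to about 30 µL; numbers are from one replicate; some results filed as inactive read as strong as hits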
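Assay system: purified chicken nucleosomes with FITC-labelled LANA N-terminal peptide (1-23) / Probe or stimulus: 50 nM FITC-LANA1-23 probe / Compound dosing: pin-transferred compound, 100 nL / Times: compound with peptide–nucleosome mix 10–45 min at room temperature / Technique: fluorescence polarization, 480 nm excitation, 535 nm parallel and perpendicular emission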
Ab BasE inh – blocks the Acinetobacter baumannii siderophore enzyme BasE | 0.1% of 84,000 active | inhibition, % (concentration not given with the values) | purified BasE, fluorescence polarization binding displacement;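 active = both replicates above 25% with normal brightness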;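 note: 0% = negative plate control signal and 100% = positive plate control signal; stock transfer was 100 nL into about 30 µL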
An asterisk follows results filed as active; / = not tested or not shown; & = joins results of further samples. The list is partial; rates above refer to the full screens.

SMILES	LANA-nucl inh	Ab BasE inh
Cc1cc(SCC(=O)NN)c(C)cc1Cl	/	-2.0
CN(C(=O)C1CCCC1)c1c(N)n(Cc2ccccc2)c(=O)[nH]c1=O	/	4.0
N#Cc1ccc(COC(=O)CCc2nc(N)nc(Nc3ccccc3)n2)cc1	/	1.1
FC(F)(F)c1cnc(-n2ccc3ccccc32)c(Cl)c1	-1.1	/
CC1=C/C(=N\N=C2\NC(=O)C(CC(=O)Nc3ccccc3)S2)CC(C)(C)C1 (stereo not given)	-0.009	1.5
Cc1ccccc1C(=O)N1N=C(c2ccc(Br)cc2)CC1c1nc2ccccc2[nH]1 (stereo not given)	/	0.9
c1ccc(NNc2nncc(-c3ccccc3)n2)cc1	0.34	2.2
O=C(c1ccc(CN2CCc3ccccc3C2)cc1)N1CCCCCC1	/	-0.4
O=CNc1c(O)c2ccccc2oc1=O	-0.12	1.7
O=c1[nH]c(-c2ccccc2)nc(=S)[nH]1	0.46	-1.0
COc1ccc(OC)c(S(=O)(=O)N2CCCC2)c1	/	3.5
Cc1cc(C)c(C(=O)c2ccc(C(=O)N(C)C)cc2)c(C)c1	-0.29	-0.5
CC(C)NC(=O)c1cc(Br)c(Br)s1	/	1.8
COc1ccc(OC)c(CN2C(=O)CCC2(C)C(=O)NCCc2ccc(OC)c(OC)c2)c1 (stereo not given)	1.4	-2.1
CN=c1scc(C)n1/N=C(\C)c1cccc(F)c1	/	1.4
C[N+]1(CCOC(=O)C2(c3ccccc3)CCCC2)CCCCC1	/	1.0
COC(=O)c1ccc(-c2ccco2)n1CC(=O)Nc1cccc(C)c1C	1.1	0.1
Cc1ccc(NC(=O)c2ccc3nc[nH]c3c2)cc1C	/	-7.9
CC1(C)NC(=O)N(CCC(=O)N2CCN(S(=O)(=O)c3cccs3)CC2)C1=O	/	1.1
O=C1Cc2ccccc2N1c1ccccc1	0.29	/
COc1ccc(S(=O)Cc2ccc(C(=O)NCCc3ccc(SC)cc3)o2)cc1 (stereo not given)	1.6	-4.9
CCOC(=O)C1=C(C)NC(C)=C(C(=O)OC)C1c1cccc(Cl)c1Cl (stereo not given)	0.2&-0.15	0.8
Nc1nc(=S)nc(Cc2ccc3c(c2)CCC3)[nH]1	/	-5.4
Cc1ccc(-c2nc(N3CCN(c4ccc(F)cc4)CC3)c3ccccc3n2)cc1	-1.5	0.7
N#Cc1c(-c2ccccc2)nc2n1CCS2	/	0.8
COc1ccccc1CCNC(=O)c1ccoc1C	-0.048	1.2
CCC(C)c1ccccc1NC(=O)COc1ccc2c(c1)OCO2 (stereo not given)	/	0.5
COc1ccc(N2C(=O)CSCC2=O)cc1OC	0.01	0.2
O=C1c2oc3ccccc3c(=O)c2C(c2cccc(O)c2)N1Cc1ccccc1 (stereo not given)	0.25	2.6
COc1ccc(CCCc2n[nH]c(=S)n2C)cc1C	-1.2	-1.2
CCOc1ccc(-c2cccc(NS(C)(=O)=O)c2)nn1	-0.68	-0.7
Cc1ccc(S(=O)(=O)Nc2c(C#N)c3nc4ccccc4nc3n2Cc2ccccc2)cc1	/	-0.5
CC(OC(=O)CSc1nc2ccccc2o1)C(=O)c1ccc(OC(F)F)cc1 (stereo not given)	/	-0.5
C=CCNC(=O)CSc1nncn1-c1ccccc1	/	0.1
CCOC(=O)c1csc(NC(=O)CN2CCOCC2)n1	-0.061	0.2
Fc1ccc(N2CCN(C3=Nc4cccc5cccc3c45)CC2)cc1	/	-7.1
CCOC(=O)c1cnn(-c2ncnc3sc4c(c23)CCCC4)c1N	/	3.5
C=CCSc1n[nH]c(=O)n1-c1ccc(Cl)cc1	/	2.9
COC(=O)c1noc(C)c1-c1ccnn1S(=O)(=O)c1cccc(C(F)(F)F)c1	0.16	-0.5
CCCCNC(=O)c1cc(Cc2c(C)n[nH]c2C)c(N2CCOCC2)s1	2.3	-3.0
COC(=O)c1ccc(CSc2n[nH]c(-c3ccccc3)n2)o1	0.38	0.4
O=S(=O)(Cc1ccco1)Cc1nc(-c2ccc(-c3ccccc3)cc2)cs1	/	-1.0
FC(F)(F)c1ccc(N2CCCC2)nc1	-0.14	2.3
CC1(C)CCc2cc(C3SCCS3)ccc2O1	/	-1.5
O=C1CCC/C(=N\NC(=O)Cc2cn3ccsc3n2)C1	/	-1.9
COC(=O)c1ccc(COC(=O)c2oc3ccccc3c2COC(C)C)o1	/	6.4
O=C(CCc1nc2ccccc2[nH]c1=O)OCc1ccc(Cl)cc1	0.16	-1.6
Cc1ccc(C)c2c(N)c3c(nc12)CCCCC3	-0.17	0.0
COc1ccccc1NC(=O)Cc1nc(CN2CC(C)OC(C)C2)cs1 (stereo not given)	/	-3.6
CN(C)c1ccc(/C=C(\C#N)S(C)(=O)=O)c(F)c1C#N	/	-0.6
(continued)
SMILES	LANA-nucl inh	Ab BasE inh
CN(C(=O)c1cccc(Nc2ccc(-c3ccc4c(c3)OCCO4)nn2)c1)C1CCCCC1	0.43	0.1
O=C1N=C(O)CN1/N=C/c1ccc(-c2ccc([N+](=O)[O-])cc2)o1	-0.035&0.054	-0.3
COc1ccc2c(=O)c(Oc3cc(C)ccc3C)coc2c1	/	1.8
C=CCn1c(Sc2ncnc3sc(C)c(C)c23)nnc1C1CCCCC1	/	1.5
O=C(NCCc1ccc(Cl)cc1)c1nc(-c2cccnc2)no1	-0.41	3.2
Cc1ccc(SCCC(=O)N(C)C)cc1	-0.41	-1.4
COC(=O)C1=C(C)N(C(C)c2ccccc2)C(=O)/C1=C\c1ccco1 (stereo not given)	/	2.6
COCCNc1nc2ccccc2c2nc(-c3cccnc3)nn12	2.2	2.3
O=C(CSc1nc2ccsc2c(=O)n1NC(=O)COc1ccccc1Br)NCc1ccco1	-0.73	2.9
CCCCNc1nc2ccccc2n1CC(=O)Nc1ccc(S(=O)(=O)N2CCCC2)cc1	/	1.7
N#Cc1ccc(CN(c2ccncc2)S(=O)(=O)c2ccccc2)cc1	/	2.5
Cc1cccc(C)c1NC(=S)N1CC(C)OC(C)C1 (stereo not given)	/	2.1
CCCCn1c(SCC(=O)C(C#N)c2nc(C)cs2)nc2cc(S(N)(=O)=O)ccc21 (stereo not given)	/	-1.2
CCOC(=O)c1ccc(NC(=O)CS(=O)(=O)c2cn(CC)c3ccccc23)cc1	0.46	-0.6
CCOC(=O)c1oc2ccccc2c1COC(=O)c1c(C)nn(-c2ccc(F)cc2)c1Cl	/	0.5
Cc1ccc(NC(=O)COc2cccc3c2CCNC3=O)cc1Cl	-1.1	5.3
Cc1cc(C(C)(C)C)ccc1OCCN(C)C	-0.33	0.8
CCOC(=O)C1(CCC#N)C(=O)C=C(c2ccc(OC)cc2)CC1c1ccc2ccccc2c1 (stereo not given)	/	1.7
COc1ccc(CC(CC(=O)O)C(=O)O)cc1 (stereo not given)	/	3.5
O=C(Nc1cccc(F)c1)NC1CCCC1	-0.36	0.0
CCn1c(=O)c(-c2ccccc2)c(O)c2ccccc21	-0.24	2.4
CC1=CC(=NC#N)C(C)=CC1=NC#N	/	-2.4
C1=CCC(/C=N/n2cnnc2)CC1 (stereo not given)	/	-0.5
c1cncc(-c2noc(-c3cc(C4CC4)[nH]n3)n2)c1	-0.46	0.0
CC(C)/C(=N/O)c1ccccc1	/	1.5
CC(C)C(=O)N1CCN(S(=O)(=O)c2ccc(F)cc2)CC1	/	-0.8
CNC(=O)c1ccccc1-c1ccccc1	-2.3	-0.4
O=C(COn1c(=O)n(COC(=O)c2ccccc2)c2ccccc21)c1ccccc1	/	1.8
CCCN1C/C(=C/c2ccc3c(c2)OCO3)C(=O)/C(=C/c2ccc3c(c2)OCO3)C1	-0.84	1.6
Cc1ccc(C(=O)COC(=O)c2cc(C)oc2C)cc1	/	-1.9
COC(=O)COc1ccc2c(=O)c(-c3ccc4c(c3)OCCO4)c(C)oc2c1	0.12	-1.2
Cc1oc(CC(C)C)c(CN2CCOCC2)c1C(=O)O	0.7	0.3
CCCOC(=O)c1c(NC(=O)CSc2nc(-c3ccco3)cc(C(F)(F)F)n2)sc(C(=O)N(C)C)c1C	-0.44	2.0
CCOC(=O)CC(C)=Nc1cnn(-c2ccccc2)c1	-0.084	25
COc1cccc(N2C(C)=CC(=C(C#N)C#N)C=C2C)c1	/	1.8
O=C(c1ccco1)N1CCN(CC(O)COCc2cccs2)CC1 (stereo not given)	/	1.8
COc1cc(/C=C(\C#N)C(=O)NC2CCCCC2)cc(OC)c1O	/	-3.7
Cc1ccc(NC(=O)c2ccccc2NS(C)(=O)=O)cc1C	-0.61	4.9
COC(=O)CNC(c1ccccc1)c1cc(Br)ccc1NC(=O)c1ccccc1Cl (stereo not given)	/	-0.1
C#CCn1c(=NC(C)=O)sc2cc(NC(C)=O)ccc21	0.94	-0.5
O=C(O)Cn1c(=O)oc2cc(Cl)ccc21	-0.32	0.0
CC(C)(C)c1ccc(S(=O)(=O)CCSc2nc3c(cc2C#N)CCCC3)cc1	/	2.5
CC(C)c1ccc2occ(CC(=O)Nc3nnc(C(C)C)s3)c2c1	0.024	-2.8
C[C@@H]1NC(=O)[C@@H]2C[C@@H](OC(=O)c3ccccc3)CN2C1=O	-0.49	/
CC(C)(C)c1csc(-c2ccc(O)cc2)n1	/	1.9
CC1COc2c(N3CCN(C)CC3)c(F)cc3c(=O)c(C(=O)N4CCN(S(=O)(=O)c5ccccc5)CC4)cn1c23 (stereo not given)	/	1.0
Cc1cc(Cl)c(CC(=O)O)c(Cl)n1	/	1.1
CCOC(=O)c1[nH]c(C)c(CCC(=O)O)c1C	-1	2.1
Nc1cc(C(F)(F)F)ccc1-n1ccnc1	/	-0.5
Cc1cc(OC(=O)C2CC(=O)N(c3ccc(F)cc3)C2)ccc1N1C(=O)CCC1=O (stereo not given)	-0.79	-0.4
(list continues)
SMILES	LANA-nucl inh	Ab BasE inh
N#Cc1c(-c2ccco2)cc(-c2cccs2)nc1OCc1ccc(F)cc1	/	2.5
Oc1ccc(/C=N/N=C/C2=C(N3CCOCC3)C(=C\c3ccccc3)/CC2)c(O)c1	/	-1.9
O=C(OC[C@H]1O[C@H](OC(=O)c2cc(O)c(O)c(OC(=O)c3cc(O)c(O)c(O)c3)c2)[C@H](OC(=O)c2cc(O)c(O)c(OC(=O)c3cc(O)c(O)c(O)c3)c2)[C@@H](OC(=O)c2cc(O)c(O)c(OC(=O)c3cc(O)c(O)c(O)c3)c2)[C@@H]1OC(=O)c1cc(O)c(O)c(OC(=O)c2cc(O)c(O)c(O)c2)c1)c1cc(O)c(O)c(OC(=O)c2cc(O)c(O)c(O)c2)c1	0.61&0.78	3.4
O=C1CC2(CCCC2)C(=O)N1c1ccc(OC(F)(F)F)cc1	/	0.7
CC(C(=O)OCC(=O)c1ccc[nH]1)N1C(=O)c2ccccc2C1=O (stereo not given)	/	0.7
CCOC(=S)NC(C)(C)C	-0.056	-0.1
CC(Oc1ccc(F)cc1)C(=O)NN (stereo not given)	/	0.0
Cc1nn(CCCC(=O)NCc2ccccc2)c(=O)c2nccn12	-0.31	2.1
Cc1ccc(Nc2nc(Nc3ccc(C)cc3)nc(-n3sc(=S)nc3C)n2)cc1	/	2.1
COC(=O)C(C)Oc1ccc(C(=O)O)cc1OC (stereo not given)	-0.25	0.7
COc1ccc(CCNC(=O)C(Sc2ccc(Cl)cc2)c2ccccc2)cc1OC (stereo not given)	/	2.1
CC(=O)Nc1ccc(S(=O)(=O)N(C)C)cc1	0.23	3.0
COCCNC(=O)Cn1ncn2nc(-c3ccccc3)cc2c1=O	-0.69	2.5
Cc1coc2cc3oc(=O)c(CCC(=O)N4CCCC4)c(C)c3cc12	0.12	-0.6
O=C(N=C=S)c1ccc(Cl)cc1	/	1.2
CN(C)CCCC1(O)c2ccccc2CCc2ccccc21	-0.33	0.0
CCCn1c(CCC(=O)NCc2ccc(Cl)cc2)nc2cccnc21	0.46	-2.1
COC(=O)c1ccccc1NC(=O)Nc1ncn(Cc2cccc(C(F)(F)F)c2)n1	-0.56	0.2
CC(C)(C)C1COC(CC2=NC(C(C)(C)C)CO2)=N1 (stereo not given)	-0.88	-0.5
Cc1ccc(/C=c2\s/c(=C(/C#N)C(=O)N3CCCC3)n(Cc3ccco3)c2=O)s1	/	20
Cn1nc(Cl)c(Cl)c1Oc1ccccc1	0.92	/
Cc1csc2sc(-c3ccnc(SCC(=O)c4ccccc4)n3)c(C)c12	/	1.8
